Bioassay records deposited in PubChem BioAssay by National Center for Advancing Translational Sciences (NCATS).
CtBP-E1A blk – qHTS Assay for Inhibitors of the CtBP/E1A Interaction. AID 651724, 2012. activity change, % (test concentration not listed). 340,000 tested, 0.49% active. AlphaScreen GST-E1A/His-CtBP binding, 1536-well; active compounds read low; control for the full effect not named in the record. CtBP / adenovirus E1A interaction (AlphaScreen); in the data active means activity change below about -65%; inconclusive means about -30% to -65%; inactive means above about -30%; also: % is scaled to controls: 0 for no effect and ±100 for the full control effect
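GST-E1A and His-tagged CtBP (125 nM each as 5X stock) were preincubated with pin-transferred compound for 2 h at 37 °C in the dark, then glutathione donor and nickel acceptor beads were added for 1 h before AlphaScreen reading.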
gsp ag – qHTS for Agonist of gsp, the Etiologic Mutation Responsible for Fibrous Dysplasia/McCune-Albright Syndrome: qHTS | gsp mutant cells, cAMP HTRF, 30 min; control for the full effect not named in the record | Potency, µM (titrated, usually from 76.9 µM), without a hit: at the top dose activation (cAMP increase), hits mostly activators | 340,000 tested, 0.13% active | AID 624287, 2012; active = well fitted activation curve with a large enough effect; inconclusive = small, poorly fitted or top-dose-only effect, or another doubt; inactive = no such curve, though single readings can be large or run the other way; cell line not stated here;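 also: phosphodiesterase inhibitor Ro 20-1724 added with compounds to block cAMP breakdown; potency is read from the fitted curve at half-maximal effect; nearly all actives have a fitted effect of over 60% in size; about a fifth of the inactives were tested at one dose only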
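Cells in DMEM/10% FBS with G418 were pretreated with compounds in DMSO plus […] (300 uM stock) for 30 min at 37C. cAMP was measured by HTRF (cAMP-d2 plus anti-cAMP antibody-K) after 30 min at room temperature.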
Menin-MLL FL inh – qHTS Assay for Inhibitors Targeting the Menin-MLL Interaction in MLL Related Leukemias: Competition With Fluorescein Labeled MLL-derived Peptide. Fluorescence polarization, fluorescein-MLL peptide displacement from menin. FP activity change, % at 61.4 µM. 290,000 tested, under 10 active; inconclusive = falling polarisation curve, or a change in total fluorescence; inactive = total fluorescence flat and polarisation flat or rising; no compound was filed as active; the % refers to the polarisation; negative = inhibition;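 also: % of control where 0% means no effect; inhibitors lower the polarisation; unlabelled MLL peptide was the positive control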
TRPV1 potentiator – HTS Assay for Compounds that Act as Potentiators of the Vanilloid Receptor 1. Transient receptor potential cation channel subfamily V member 1 (Homo sapiens), Q8NER1. TRPV1-expressing cells, Fluo-8 calcium influx, capsaicin EC20 potentiation; host cell line not named in the record; control for the full effect not named in the record. potentiation, % at 8.33 µM. 320,000 tested, 0.02% active. AID 540277, 2011; active means potentiation above 80%; inconclusive means 30% to 80%; inactive means below 30%; also: 0% is about no effect
Target sequence (Q8NER1 whole entry, looked up): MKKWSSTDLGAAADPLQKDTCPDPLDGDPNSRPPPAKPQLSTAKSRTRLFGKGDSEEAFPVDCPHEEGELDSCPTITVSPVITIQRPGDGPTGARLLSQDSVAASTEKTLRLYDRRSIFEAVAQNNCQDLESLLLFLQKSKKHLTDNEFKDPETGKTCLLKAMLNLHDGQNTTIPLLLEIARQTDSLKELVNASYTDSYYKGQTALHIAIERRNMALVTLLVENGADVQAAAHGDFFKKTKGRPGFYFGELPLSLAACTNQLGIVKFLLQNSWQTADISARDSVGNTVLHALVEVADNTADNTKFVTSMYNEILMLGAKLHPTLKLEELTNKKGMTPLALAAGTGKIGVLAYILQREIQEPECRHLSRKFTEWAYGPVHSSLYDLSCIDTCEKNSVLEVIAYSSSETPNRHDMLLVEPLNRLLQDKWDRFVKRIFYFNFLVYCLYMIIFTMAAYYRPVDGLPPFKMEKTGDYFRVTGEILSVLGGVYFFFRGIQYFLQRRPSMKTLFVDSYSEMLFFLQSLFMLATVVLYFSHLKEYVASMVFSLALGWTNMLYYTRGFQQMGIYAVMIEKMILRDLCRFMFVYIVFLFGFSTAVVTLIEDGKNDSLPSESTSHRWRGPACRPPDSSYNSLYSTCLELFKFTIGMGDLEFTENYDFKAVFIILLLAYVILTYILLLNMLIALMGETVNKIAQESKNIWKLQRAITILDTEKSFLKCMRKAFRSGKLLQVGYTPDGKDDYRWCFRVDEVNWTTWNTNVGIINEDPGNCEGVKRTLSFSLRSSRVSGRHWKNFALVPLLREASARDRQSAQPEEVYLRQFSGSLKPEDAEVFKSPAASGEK
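TRPV1-expressing cells were cultured overnight at 35.5C and loaded with Fluo-8 calcium dye for 40 to 90 min at room temperature. After a 10 s baseline, compound was added and calcium influx was read kinetically for 3 min (ex 480/em 520 nm).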
Sfp inh – qHTS Assay for Inhibitors of Bacillus subtilis Sfp phosphopantetheinyl transferase (PPTase) | Potency, µM, for the others: max response, negative = inhibition, most hits filed as inhibitors | 4'-phosphopantetheinyl transferase ffp (Bacillus subtilis), Q9F4F7 | AID 1490, 2009 | 310,000 tested, 3.5% active | Biochemical Sfp PPTase activity, qHTS; active = well fitted inhibition curve with a large enough effect; inconclusive = small, poorly fitted or top-dose-only effect, or another doubt; inactive = no such curve, though single readings can be large or run the other way;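 also: the enzyme is Sfp with the accession as filed and its product quenches rhodamine fluorescence; potency is read from the fitted curve at half-maximal effect; 0% = enzyme reaction without inhibitor and -100% = no enzyme wells; top concentration of the series not given in the record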
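Step 1, compound plus 15 nM Sfp-PPTase, 15 min, room temperature. Step 2, add rhodamine-CoA (5 uM) and BHQ-2-YbbR (12.5 uM). Step 3, read 525/598 nm fluorescence at 0 and 30 min.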
gsp antag – qHTS for Antagonists of gsp, the Etiologic Mutation Responsible for Fibrous Dysplasia/McCune-Albright Syndrome: qHTS | gsp-mutant cells, cAMP HTRF, 30 min; control for the full effect not named in the record | Potency, µM (series often up to 76.9 µM), for the others: at the highest dose activity change, negative = inhibition, actives largely listed as inhibitors | 340,000 tested, 0.4% active | AID 624288, 2012; active = falling curve of any shape with a large fitted effect; inconclusive = falling curve, mostly with a smaller effect; inactive = flat or rising curve; cell line not stated here;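 also: intracellular cAMP measured with PDE inhibitor Ro 20-1724 present during compound exposure; potency is read from the fitted curve at half-maximal effect; % is scaled to controls: 0 for no effect and ±100 for the full control effect; nearly all actives have a fitted effect of over 65% in size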
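Measurement of cellular cAMP by homogeneous time-resolved fluorescence following a 30 min compound exposure at 37C. The PDE inhibitor […] was present throughout; the assay buffer was DPBS with 0.05% BSA and 0.005% Tween 20.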
ClpP mod – qHTS Assay for Activators of ClpP | purified B. subtilis ClpP, FRET peptide cleavage, 20 min | Potency, µM (titrated, usually from 57.5 µM), without a hit: at the top dose activity change, negative = active | 340,000 tested, 1.9% active | AID 651965, 2013; active = well fitted falling curve with a large enough effect; inconclusive = small, poorly fitted or top-dose-only effect; inactive = no such curve, though single readings can be large or run the other way; also: potency is read from the fitted curve at half-maximal effect; the source files actives as falling curves though it sought activators and does not explain the sign; nearly all actives have a fitted effect of over 65% in size; many hits overshoot -100%
Target sequence (P80244 whole entry, looked up): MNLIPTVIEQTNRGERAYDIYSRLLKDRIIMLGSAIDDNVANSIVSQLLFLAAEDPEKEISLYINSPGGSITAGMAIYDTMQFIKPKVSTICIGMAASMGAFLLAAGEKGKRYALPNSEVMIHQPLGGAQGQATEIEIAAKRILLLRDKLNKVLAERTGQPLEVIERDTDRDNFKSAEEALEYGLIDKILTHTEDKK
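Buffer: 100 mM Tris/HCl pH8, 100 mM KCl, 0.05% low protease BSA, 2.5% glycerol, 0.01% Tween-20. ClpP 10 microg/mL final; 20 min RT; delta FRET normalized to ADEP and DMSO controls.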
* = called active by the depositor; u = inconclusive; x = not tested or not shown; & = joins results of further samples; [ ] = another dose, or the depositor's remark. The order is random. Share with any hit: about 5.3%.

Results follow in this order: CtBP-E1A blk	gsp ag	Menin-MLL FL inh	TRPV1 potentiator	Sfp inh	gsp antag	ClpP mod
> CNC(=O)C1CC(=O)N(c2ccc(OCC(=O)NCc3ccccc3)cc2)C1 (stereo not given)
 : 0	-4%[15.4 µM]	-11	u	10%	12%	0.7%
> Cc1cccc(-c2c3c(=O)n(C)c(=O)n(C)c3cn2CC2CCCO2)c1 (stereo not given)
 : 3	-23%	3.8	-5	-7%	5%	-3.8%
> O=C(O)CNS(=O)(=O)c1ccc2[nH]c(=O)c(=O)[nH]c2c1
 : 5	14%[15.4 µM]	0.9	4	7%	-7%	-2.9%
> Oc1ccc(N2CCN(c3nnnn3-c3ccccc3)CC2)cc1
 : 17	-4%[15.4 µM]	-0.4	-3	56µM*	x	x
> Cc1cc(C(=O)Nc2ccc(Cl)cc2)on1
 : 4	-7%	7.2	-20	3%	1%	-13%
> O=C(Nc1nnc(C2=COCCO2)o1)c1cccc([N+](=O)[O-])c1
 : -5	-2%[15.4 µM]	x	-10	7%	2%	-2.4%
> COc1ccc2c(c1)-c1ccccc1S(=O)(=O)N(C)C2
 : -7	x	x	x	x	5%	-8.0%
> Cc1c(C(=O)OCC(=O)NCCc2ccc(S(N)(=O)=O)cc2)oc2ccccc12
 : x	2%	x	-2	x	-14%	u
> CCn1c(SCC(=O)Nc2ccc(C(C)=O)cc2)nc2ccccc21
 : 1	1%	-0.1	6	-8%	6%	-0.2%
> Cc1ccc(S(=O)(=O)N(CC(=O)N2CCC(C(N)=O)CC2)Cc2ccc(F)cc2)cc1
 : -15	21%	-0.2	-12	14%	-8%	-0.1%
> CN(C)c1cc[n+](CC(=O)Nc2ccc(Oc3ccccc3)cc2)cc1
 : -3	-9%	-1.0	0	7%	-2%	x
> Cn1cnnc1SCC(=O)Nc1ccccc1C(=O)NC1CCCC1
 : 14	25%	0.1	0	20%	9%	0.3%
> COc1ccc(NC(=O)c2ccc(CNc3c(NC4CCCCC4)c(=O)c3=O)cc2)cc1OC
 : -2&-3	-103%&5%[inhibitor]	-1.8	-10	14%	10%&6%	-4.7%&-2.0%
> CN(C)S(=O)(=O)c1cccc(NC(=O)c2cc(-c3cccs3)nn2-c2ccccc2)c1
 : u	-10%	-4.0	1	16%	-6%	-28%
> N#Cc1ccc(N/N=C/c2ccccc2)c([N+](=O)[O-])c1
 : -7	-4%[15.4 µM]	-0.3	-1	20%	2%	-2.0%
> CC(C)CC1=NC(C(F)(F)F)(C(F)(F)F)c2c(n(CC(C)C)c(=O)[nH]c2=O)N1
 : 14	18%	-1.6	-16	6%	1%	65%
> CCOc1ccc(-c2noc(COC)n2)cc1OC
 : 0	10%	2.6	-1	2%	3%[15.4 µM]	-0.6%
> CC(c1ccccc1C(O)(c1ccccc1)c1ccccc1)N(C)C (stereo not given)
 : x	29%	-1.1	7	-12%	6%	0.0%
> CN(C)C1=NCC(CSC(=N)N)S1 (stereo not given)
 : -6	2%	-6.9	13	8%	-11%	-1.3%
> O=C(COc1ccccc1Cl)NCCCNC(=O)c1cccnc1
 : 0	-38%[inhibitor]	-0.6	5	20%	3%	x

Compound profiles (already shown). Order of values: CtBP-E1A blk	gsp ag	Menin-MLL FL inh	TRPV1 potentiator	Sfp inh	gsp antag	ClpP mod
Listed for CN(C)C1=NCC(CSC(=N)N)S1 (stereo not given) = -6	2%	-6.9	13	8%	-11%	-1.3%
Listed for O=C(COc1ccccc1Cl)NCCCNC(=O)c1cccnc1 = 0	-38%[inhibitor]	-0.6	5	20%	3%	x
Listed for CN(C)c1cc[n+](CC(=O)Nc2ccc(Oc3ccccc3)cc2)cc1 = -3	-9%	-1.0	0	7%	-2%	x
Listed for N#Cc1ccc(N/N=C/c2ccccc2)c([N+](=O)[O-])c1 = -7	-4%[15.4 µM]	-0.3	-1	20%	2%	-2.0%

The list continues.
Results follow in this order: CtBP-E1A blk	gsp ag	Menin-MLL FL inh	TRPV1 potentiator	Sfp inh	gsp antag	ClpP mod
> O=C(Nc1ccccn1)NC1CCCCC1
 : 0	6%	0.7	-6	20%	14%	1.3%
> O=[N+]([O-])c1ccccc1/C=N/N1CCN(Cc2ccccc2)CC1
 : -29	-5%[15.4 µM]	3.8	3	8%	-5%	0.3%
> O=C(CCC1CCCC1)Nc1ccc(OCC(=O)N2CCOCC2)cc1
 : 5	5%	3.2	29	6%	-12%	1.1%
> Cc1cc(=O)oc2cc(OCC(=O)N3CCN(c4ccc(F)cc4)CC3)c(Cl)cc12
 : 1	u	x	u	11%	-6%	-1.9%
> O=C(ON=C1CCN(S(=O)(=O)c2ccccc2)CC1)c1cccc(Cl)c1
 : 5	u	0.5	-24	6%	1%	0.9%
> CCOC(=O)c1sc(N)c(C#N)c1CSc1nnc(C2CC2)n1N
 : 19	12%	3.2	-17	12%	5%	0.2%
> O=S(=O)(c1ccc(Cl)nc1)N1CCN(Cc2ccc3c(c2)OCO3)CC1
 : -3	-4%	-3.9	-5	-2%	1%	-0.1%
> COc1ccc(-c2cc3ccc(OCC(C)=O)cc3oc2=O)cc1
 : 10	18%	3.6	-5	11%	11%	4.3%
> CCn1cc(C(=O)N2CCCC(CO)(Cc3ccccc3C)C2)cn1 (stereo not given)
 : 13	1%	4.3	-22	11%	16%	-1.5%
> CCOC(=O)c1sc(NC(=O)C2CCC2)cc1C
 : x	-1%	3.7	-30	-8%	-26%	-3.1%
> CN1CCN(C(=O)/C(=C/c2cn(C)c3ccccc23)NC(=O)c2ccccc2)CC1
 : -5	29%	0.8	-1	-3%	-4%	0.0%
> COc1ccccc1NC(=O)c1oc2ccccc2c1C
 : 11	-34%[inhibitor]	x	x	x	x	-14%
> CCOC(=O)C1CCCN(S(=O)(=O)c2cc(Br)cc3c2N(C(C)=O)CC3)C1 (stereo not given)
 : -15	u	0.1	6	-2%	-9%	-6.6%
> CCNC(=S)N1CCN(CCN=CC2=C(O)CC(C)(C)CC2=O)CC1
 : x	-20%	1.3	-9	5%	-6%	1.2%
> Cc1ccc(S(=O)(=O)C2(C(=O)Nc3nccs3)CC2)cc1
 : 5	-11%	2.6	19	-13%	1%	0.0%
> O=C1NC(=Nc2ccccc2)/C(=C/c2ccco2)S1
 : -3	-19%	u	-12	22µM*	-9%	0.0%
> COc1ccc(C2CC(=O)c3c(O)cc(O)cc3O2)c(CC=C(C)C)c1OC (stereo not given)
 : 25	x	x	x	x	-24%	1.7%
> OCc1ccccc1N=Cc1cccnc1
 : 1	-1%[15.4 µM]	0.1	6	14%	13%	x
> CC(C)C(=O)Nc1cc(S(=O)(=O)N2CCOCC2)ccc1N1CCCCC1
 : 0	-13%	x	x	x	-2%	x
> O=C(c1cc(-c2ccccc2)on1)N1CCN(c2ccccc2)CC1
 : 3	6%	-8.7	-21	-2%	8%	1.6%
> COc1ccc(-c2csc(NC(=O)c3cc(C)on3)c2C#N)cc1OC
 : 37	-41%[inhibitor]	2.3	2	0%	1%	-1.1%
> O=C(Nc1ccccc1)NC1(C(=O)N2CCN(C(=O)c3ccco3)CC2)CCCCC1
 : -2	u	4.3	6	7%	8%	-0.4%
> COc1ccc2cc(C(N)=O)c(=Nc3ccc(C)cc3)oc2c1
 : -5	-1%[15.4 µM]	1.4	-14	10%	-23%	97%
> Fc1ccc(-c2csc(-c3ccc(C4SCCS4)cc3)n2)cc1F
 : x	0%	-1.3	x	-8%	-5%	-27%
> CCOC(=O)Cn1c(-c2ccccn2)nc2ccccc21
 : -1	-16%	2.2	-2	-4%	2%	28µM*
> NC(=O)C1=C[C@@H](c2ccccc2)C[C@@H](OCCCCO)O1
 : 3	x	x	x	x	9%	-0.2%
> O=C(NCc1ccc(F)cc1)C1CCN(S(=O)(=O)c2cccnc2)CC1
 : -2	8%	0.1	4	3%	7%	-4.7%
> COc1c(Br)cc2c(C)c(C(=O)O)oc2c1Br
 : u	-27%	4.8	15	-2%	-20%	0.4%
> COc1ccc(Br)cc1CN1CCCC(C(=O)N2CCCCCC2)C1 (stereo not given)
 : -7	-6%	-2.3	29	u	-8%	-2.4%
> Cc1nc2ccc(C(=O)OCc3ccccc3Br)cc2nc1C
 : 4	19%	0.7	11	9%	2%	-1.2%
> CCCc1nnc(NC(=O)CCC(=O)NCc2ccc(OC)cc2)s1
 : -1	24%	0.6	4	9%	10%	x
> O=C(CCc1nc2ccccc2c(=O)[nH]1)N1CCN(c2ccc(F)cc2)CC1
 : -3	7%[15.4 µM]	0.1	9	10%	-12%	x
> Cc1ccc(CNC(=O)CN2NS(=O)(=O)c3ccccc3C2=O)cc1
 : -2	-3%	x	x	x	x	-1.4%
> C/C(=N\NC(=O)CN(c1ccc(C)cc1)S(C)(=O)=O)c1cccs1
 : 0	29%	-3.4	1	22%	10%	1.2%
> CN(C)N=Nc1ccc(-c2cn(Cc3ccccc3)cn2)cc1
 : -21	-7%	-8.1	u	-3%	-7%	x
> CCOC(=O)C1CCN(C(=O)C(CCSC)NC(=O)c2ccccc2OC)CC1 (stereo not given)
 : x	28%	x	11	x	0%	-0.4%
> O=C(/C=C/NCC(=O)c1ccccc1)c1ccc(Br)cc1
 : 12	-1%[15.4 µM]	4.6	11	-29%	9%	0.3%
> O=S(=O)(NCC1CCCO1)c1ccc(Oc2ccccc2)cc1 (stereo not given)
 : 5	-27%	1.2	-14	1%	-5%	0.2%
> CC(C)Cn1c(-c2ccc(F)cc2)n[nH]c1=S
 : 0	u	0.1	5	-67%	11%	-7.5%
> N#CC1=C(N)Oc2n[nH]c(-c3cccs3)c2C1c1ccccc1C(=O)O (stereo not given)
 : 0	-1%[15.4 µM]	7.0	2	10%	12%	x
